# Screening data from PubChem BioAssay.
# Rango release inh: prevents RanGTP from dissociating the Rango-importin beta complex | Biochemical FRET Rango-importin beta, RanGTP-induced dissociation | actives 0.071% (n = 340,000) | O95149+P62826 | Potency, µM (doses to about 46.1 µM), without a hit: at the top dose activity change, negative = inhibition | AID 540253; active means falling FRET ratio curve, often poorly fitted, with flat reads before Ran was added; inconclusive means other falling curves, or compound fluorescence or quenching; inactive means flat or rising ratio curve;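 note: potency is the fitted concentration of half-maximal effect; % of control where 0% means no effect; nearly all actives have a fitted effect of over 45% in size; -100% = wells without RanGTP and RCC1; the record marks most hits as doubtful in a second field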
#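 Quantitative HTS using a FRET biosensor: 0.1 uM Rango, 0.25 uM importin beta, 0.6 uM Ran, 2 mM GTP, 0.2 uM RCC1 final, PBS with DTT, Tween-20 and BSA. Post-read taken 45 min after Ran addition.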
# miR-21 reporter: miR-21 reporter, rising signal; HeLa miR-21 FLuc reporter, luciferase, 48 h; Potency, µM (titrated, usually from 38.3 µM), for the others: at the highest dose reporter change, positive = more light; 340,000 tested, under 10 active; active = well fitted rising curve with a large enough effect; inconclusive = small, poorly fitted or top-dose-only effect; inactive = no such curve, though single readings can be large or run the other way;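 note: % of control where 0% means no effect; miR-21 action dims this reporter so a rising signal means less miR-21 action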
#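 Compounds were titrated across several concentrations (up to approximately 40 uM) and incubated 48 hours with HeLa miR-21-FLuc reporter cells (miR-21 target sequence downstream of FLuc, endogenous miR-21). Readout was firefly luciferase luminescence after lytic detection reagent.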
# Rango complex inh: Rango-importin beta binding inhibition; Q14974; AID 540263; Potency, µM (highest dose often 92.2 µM), without a hit: at the top dose inhibition of complex formation; actives 0.031% (n = 340,000); Rango CFP/YFP FRET sensor + importin beta, 45 min; active = rising FRET ratio curve, often small or poorly fitted; inconclusive = mostly compound fluorescence or quenching in the first reads; inactive = flat curves in all reads;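 note: potency is the fitted concentration of half-maximal effect; 0% = DMSO wells and 100% = buffer wells lacking importin beta; nearly all actives have a fitted effect of over 15% in size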
#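 FRET biosensor Rango (snurportin 1 IBB between N-terminal EYFP and C-terminal Cerulean), 50 nM in PBS/1 mM DTT/0.02% Tween-20/0.1% BSA, preincubated 5 min RT with compound; 0.125 microM importin beta added, 45 min RT, CFP/YFP FRET ratio read.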
# GLA inh pH 4.5: alpha-galactosidase A (human) inhibition, pH 4.5. P06280. purified enzyme, 4-MU-alpha-Gal fluorescence, pH 4.5. activity change, negative = inhibition, % at 105 µM. 230,000 tested, under 10 active; inconclusive = small, poorly fitted or top-dose-only inhibition, or a rising curve; inactive = flat fitted curve, though single readings scatter; no compound was filed as active;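 note: 0% = full activity with enzyme and -100% = basal without enzyme; dose as in the result columns while the protocol names 77 µM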
# Target sequence (P06280 whole entry, looked up): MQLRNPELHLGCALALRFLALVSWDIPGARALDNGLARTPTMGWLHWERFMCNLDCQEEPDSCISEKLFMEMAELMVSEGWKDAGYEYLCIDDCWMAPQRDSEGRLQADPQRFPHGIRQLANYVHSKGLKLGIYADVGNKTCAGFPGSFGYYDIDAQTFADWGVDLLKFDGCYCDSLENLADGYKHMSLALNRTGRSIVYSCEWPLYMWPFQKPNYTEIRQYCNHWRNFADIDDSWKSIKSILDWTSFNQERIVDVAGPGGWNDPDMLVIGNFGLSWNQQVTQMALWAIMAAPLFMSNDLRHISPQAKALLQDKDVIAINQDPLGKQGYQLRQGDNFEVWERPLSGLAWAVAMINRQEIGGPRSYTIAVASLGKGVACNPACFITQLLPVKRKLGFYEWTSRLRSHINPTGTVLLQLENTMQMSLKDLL
# Starred values were filed as active, the others as inactive; ? = inconclusive; . = no result given; & = joins results of further samples. Some of the compounds tested; count on the stated rates, not on these rows.
GLA inh pH 4.5	Rango complex inh	miR-21 reporter	Rango release inh	Structure
4&-1	1.1%	3%	-7%	CCC1=C2CC[C@H]3C(=O)N(CC)C(=O)[C@H]3[C@H]2[C@@]2(Cc3ccccc3)C(=NCCOC)OC(=O)N2C1=O
.	0.1%	2%&0%	3%	COCCNC(=O)CN1C(=O)COc2ccc(S(=O)(=O)N3CCCCCC3)cc21
4	1.1%	1%	1%	Cc1ccc(N2CC(C(=O)Nc3ccc4c(c3)OCO4)CC2=O)cc1 (centres undefined)
5	11%	-5%	-12%	Cc1oc(/C=N/NC(=O)CC2(C)OCCO2)cc1Br
5	3.4%	9%	10%	NNC(=O)c1sccc1OCc1ccc(Cl)cc1
.	1.2%	4%	-2%	O=C(COc1ccc2c3c(c(=O)oc2c1)CCCC3)NCc1ccncc1
-1	4.1%	-28%	1%	COc1ccc(-c2nnc(SCC(=O)Nc3cc(F)ccc3C)o2)cc1
.	?	.	?	CC[C@H](C)/C=C/C1=CC2=C(Cl)C(=O)[C@@]3(C)OC(=O)C(C(=O)[C@H](C)[C@@H](C)O)=C3C2=CO1
5	-2.3%	-14%	-5%	O=C(N/N=C/C1CC=CCC1)c1ccc(Cl)cc1O (centres undefined)
-13	3.2%	-34%	4%	CCN(CC)CC(=O)Nc1c(C)cc(C(C)(C)C)cc1C
.	-2.2%	-3%	-14%	CCOc1cc(C2C3=C(CCCC3=O)N(CC(=O)O)C3=C2C(=O)CCC3)ccc1OC
.	-1.2%	2%	0%	CC(C)=CC(=O)N1CCC(n2nccc2NC(=O)CCc2ccccc2)CC1
-1	-4.6%	-4%	13%	O=C(COc1cccc2cccnc12)N/N=C/c1ccc(O)cc1
-1	-2.9%	-4%	5%	CCn1c(SCC(=O)NC(C)(C)C)nnc1-c1ccoc1C
2	2.2%	-11%	1%	CC(C)c1ccc(C(=O)Nc2ccc(N3CCOCC3)cc2)cc1
.	?	-2%	?	CCCN1CCc2c(sc(NC(=O)c3ccc(S(=O)(=O)N4CCCC4)cc3)c2C(N)=O)C1
.	0.2%	-9%	2%	Cn1cc(S(=O)(=O)N2CCOCC2)cc1C(=O)NCCc1ccccc1
.	-0.7%	1%	2%	O=C(NNc1ccc([N+](=O)[O-])cc1)Nc1ccccc1
-3	-1.1%	0%	-1%	CCc1ccc(CNC(=O)CCc2nnc(Cc3cccc(C(F)(F)F)c3)o2)nc1
.	0.5%	.	-10%	Cc1cc(-n2c(C)cc(C(=O)COc3cc(F)ccc3[N+](=O)[O-])c2C)no1
.	1.3%	.	11%	COc1ccc(CN(C)C(=O)c2ccc(NC(=O)CC3SC(N4CCCC4)=NC3=O)cc2)c(OC)c1 (centres undefined)
-5	-2.4%	0%	7%	CC(=O)NC(CC(=O)Nc1ccc(S(=O)(=O)N2CCCCC2)cc1)c1ccccc1 (centres undefined)
-8	-4.5%	-7%	11%	Cc1cc(SCC(=O)NCCN2C(=O)CSC2=O)nc2c(C)cccc12
8	-1.0%	2%	-16%	O=C(O)CCCCCNCc1ccncc1
.	-0.2%	.	-1%	COc1ccc(S(=O)(=O)NCC(c2ccc(C)cc2)N2CCN(C)CC2)cc1OC (centres undefined)

# Compound profiles (already shown). Screens in order: GLA inh pH 4.5, Rango complex inh, miR-21 reporter, Rango release inh
# COCCNC(=O)CN1C(=O)COc2ccc(S(=O)(=O)N3CCCCCC3)cc21 is entered as ., 0.1%, 2%&0%, 3%
# CC(C)=CC(=O)N1CCC(n2nccc2NC(=O)CCc2ccccc2)CC1 is entered as ., -1.2%, 2%, 0%

# More entries:
GLA inh pH 4.5	Rango complex inh	miR-21 reporter	Rango release inh	Structure
-19	11%	-3%	5%	CC(=O)N1CCc2cc(S(=O)(=O)CCC(=O)NCc3ccco3)ccc21
-10	2.7%	9%	-3%	COc1ccccc1Cc1nc2ccccc2n1S(=O)(=O)c1ccc(Cl)cc1
.	0.5%	-14%	0%	COc1cccc(CN(C)C(=O)Cc2c[nH]c3ccccc23)c1OC
-3	4.6%	0%	0%	C=CCc1ccc(O)c(-c2ccc(O)c(CC=C)c2)c1
.	0.4%	5%	12%	COc1ccc(C(CNC(=O)c2ccc(S(=O)(=O)Nc3ccc(F)cc3)cc2)N(C)C)cc1 (centres undefined)
-4	3.8%	-51%	-1%	Cc1ccc2nc(NC(=O)c3ccc(Cl)s3)sc2c1
7	-4.5%	-4%	-6%	COc1cc(/C=C2/C(=N)N3OC(C)=CC3=NC2=O)ccc1OCCOc1ccc(C)cc1
1	1.3%	0%	9%	c1ccc(C2=Nc3cccc4cccc(c34)N2)cc1
-7	0.3%	0%	6%	CCC(C)Nc1c([N+](=O)[O-])cc(C)cc1[N+](=O)[O-] (centres undefined)
3	-2.2%	0%	-8%	CC(=O)NC(CCS(C)(=O)=O)C(=O)Nc1ccc(F)cc1Cl (centres undefined)
-8	?	-45%	?	O=c1c2c3c(sc2nc2n1CCCC2)CCCC3
2	-5.7%	-40%	-3%	CCc1ccc(Oc2coc3cc(OC(=O)c4cc5ccccc5oc4=O)ccc3c2=O)cc1
3	-0.9%	-23%	16%	CN(C)c1ccc(/C=N/NC(=O)Cn2nnc3ccccc32)cc1
-2	-2.9%	0%	3%	CC1=C(C(N)=O)C(c2ccccn2)n2nc(SCc3ccccc3)nc2N1 (centres undefined)
5	3.4%	-9%	25%	Cc1ccc(C(C)C)c(OCc2nnc(SCC(=O)Nc3ncc(C)s3)n2C)c1
-6	?	-1%	7%	CC1Cc2ccccc2N1C(=O)CSc1nnc(Cn2nnc3ccccc32)n1C (centres undefined)
-13	-0.6%	-5%	5%	CN1CCN(C(=O)c2cc(C(C)(C)C)cc(C(C)(C)C)c2)CC1
.	?	-6%	2%	COc1ccc(N2CCN(C(=O)c3cc(=O)c4cc(C)ccc4o3)CC2)cc1
6	0.2%	0%	-2%	CCOC(=O)C1CCN(c2c(C(=O)c3ccccc3)cnc3ccc(CC)cc23)CC1
6	2.5%	-1%	-4%	N/C(=N\OC(=O)CN1C(=O)c2ccccc2C1=O)c1ccc(Cl)cc1
-5	?	-2%	?	Cc1cc(C)cc(Oc2nc3c(C)cccn3c(=O)c2/C=C(\C#N)C(=O)NC2CCS(=O)(=O)C2)c1 (centres undefined)
3	2.8%	-5%	4%	CCOc1ccccc1C(=O)Nc1nncs1
-12	8.7%	4%	-9%	Cc1[nH]n(-c2ccccc2)c(=O)c1C(c1cccc([N+](=O)[O-])c1O)c1c(C)[nH]n(-c2ccccc2)c1=O
-5	?	-2%	?	O=C(CSc1nc2ccccc2s1)Nn1cnnc1
-24	2.3%	-7%	8%	O=C(NCc1ccccn1)c1cccc(NS(=O)(=O)c2cccc(Cl)c2)c1
.	-0.7%	-15%	1%	CN(C)C(=O)c1cc(C(=O)c2ccccc2Br)c[nH]1
.	-1.1%	-2%	4%	CN(C)S(=O)(=O)c1cccc(C(=O)NCCNC(=O)c2cccc(S(=O)(=O)N(C)C)c2)c1
.	4.7%	0%	-21%	CCCSc1nnc(NC(=O)CCc2ccccc2)s1
.	2.0%	-6%	16%	COC(=O)Oc1ccc(/C=N/NS(=O)(=O)c2ccccc2)cc1OC
.	-0.5%	-5%	-5%	CCOC(=O)C1(Cc2cccc(Cl)c2)CCCN(C(=O)CCNC(C)=O)C1 (centres undefined)
-16	?	-3%	1%	CCCn1c(=O)[nH]c(=O)c2c1nc(-c1ccc(OC(F)F)cc1)n2CCN1CCOCC1
-9	-3.2%	-1%	8%	COC(=O)c1c(NC(=O)COC(=O)[C@@H](NS(=O)(=O)c2cccc(Cl)c2)C(C)C)sc2c1CCC2
.	0.1%	-3%	-9%	O=C(COc1ccc(Cl)cc1)Nc1cc(NC(=O)COc2ccc(Cl)cc2)cc(C(=O)O)c1
?	?	16%	?	COc1cc(/C=C2\SC(=Nc3ccc(O)cc3)NC2=O)cc(OC)c1O
-12	0.9%	-5%	1%	O=S(=O)(NCC1COc2ccccc2O1)c1ccc2ccccc2c1 (centres undefined)
7	2.7%	-6%	10%	CC1CC(C)CN(S(=O)(=O)c2cc(C(=O)O)c(Cl)s2)C1 (centres undefined)
.	-1.0%	-37%	-16%	COc1ccc(OC)c(Cc2nnc(CCC(=O)N3CCN(C4CCCC4)CC3)o2)c1
-4	-0.1%	20%	-18%	CS(=O)(=O)Nc1ccc(C2=NN(C(=O)c3ccco3)C(c3ccccc3F)C2)cc1 (centres undefined)
.	1.9%	10%	5%	Cc1cccc(NC(=O)NCC2CCN(c3ccc(S(=O)(=O)N4CCOCC4)cc3)CC2)c1
.	-0.5%	-49%	14%	Fc1ccc(-c2ccc(NCCN3CCOCC3)nn2)cc1
3	-3.0%	1%	-21%	COc1ccc(C(=O)Nc2ccc(-n3nncc3C(C)(C)C)cc2)cc1
-10	2.4%	8%	12%	COc1ccc(-c2nn(-c3ccccc3)cc2/C=C/C(=O)N2CCN(c3ccccn3)CC2)cc1
8	?	-2%	-22%	CCC1C(C#N)=C(SCC(N)=O)NC2=C1C(=O)CC(C)(C)C2 (centres undefined)
.	2.4%	-4%	-4%	O=C(NC1CC2CCCC(C1)N2C(=O)Nc1ccccc1F)C1CC1 (centres undefined)
.	-0.4%	12%	-10%	Cc1cccc(OCC(O)CN2CCN(S(=O)(=O)c3ccc(C)cc3C)CC2)c1 (centres undefined)
.	?	.	?	CCCNC(=O)Cn1c(=O)/c(=C/c2ccc(-c3cccc([N+](=O)[O-])c3)o2)s/c1=C\C(=O)C(C)(C)C
-13	2.4%	-7%	10%	O=C(CNC(=O)c1ccc(F)cc1)N/N=C/c1cc(Br)ccc1OCc1ccccc1
3	?	-3%	?	CCCCC(=O)N/N=C/c1ccc(-c2ccc([N+](=O)[O-])cc2)o1
.	1.6%	16%	3%	CC1=C(C(=O)NC2CCCc3c2cnn3-c2ccc(F)cc2F)OCCO1 (centres undefined)
-2	?	-9%	?	N#Cc1sc2nc(-c3ccccc3)cc(-c3ccco3)c2c1N

# Additional structures
GLA inh pH 4.5	Rango complex inh	miR-21 reporter	Rango release inh	Structure
-1	-1.1%	3%	1%	Cc1cccc(N2CC(C(=O)Nc3ccc(S(=O)(=O)N4CCOCC4)cc3)CC2=O)c1 (centres undefined)
-10	2.5%	-2%	-15%	COc1cc(OC)c(S(=O)(=O)Nc2ccccc2NC(=O)CN2CCOCC2)cc1NC(C)=O
.	-4.7%	.	6%	CC(C(=O)Nc1ccc(C#N)cc1)N(C)CC(=O)N(C)c1c(N)n(Cc2ccccc2)c(=O)[nH]c1=O (centres undefined)
-7	?	-43%	?	COc1ccc(C2C=C(C)Nc3nc4ccccc4n32)cc1 (centres undefined)
.	0.1%	-4%	1%	O=C(CSc1ncccn1)N1CCCC1
1	5.3%	-12%	-3%	COc1ccc(-c2nc(N)n(C(=O)Cc3ccccc3)n2)cc1
-1	-1.7%	-12%	-4%	CC1(C)CC(=O)C=C(NC2CCCCCC2)C1
7	-0.9%	1%	9%	O=C(c1c(Cl)cccc1Cl)N1CCCCCC1
.	?	27%	?	CC[n+]1ccc(/C=C/c2c[nH]c3ccccc23)cc1
.	4.8%	.	11%	CN(C)CCNc1ccc(CO)c2oc3ccc(O)cc3c(=O)c12
10	-3.1%	-87%	1%	CN(C(=O)c1ccco1)c1nnc(C23CC4CC(CC(C4)C2)C3)s1

# Reprinted at random: 6 entries already listed
GLA inh pH 4.5	Rango complex inh	miR-21 reporter	Rango release inh	Structure
-6	?	-1%	7%	CC1Cc2ccccc2N1C(=O)CSc1nnc(Cn2nnc3ccccc32)n1C (centres undefined)
.	0.1%	2%&0%	3%	COCCNC(=O)CN1C(=O)COc2ccc(S(=O)(=O)N3CCCCCC3)cc21
.	4.7%	0%	-21%	CCCSc1nnc(NC(=O)CCc2ccccc2)s1
.	0.1%	-4%	1%	O=C(CSc1ncccn1)N1CCCC1
.	2.0%	-6%	16%	COC(=O)Oc1ccc(/C=N/NS(=O)(=O)c2ccccc2)cc1OC
8	-1.0%	2%	-16%	O=C(O)CCCCCNCc1ccncc1
